GLA inh pH 4.5: qHTS Assay for Inhibitors of Human alpha-Galactosidase at pH 4.5. Alpha-galactosidase A (Homo sapiens), P06280. activity change, negative = inhibition, % at 105 µM. 230,000 tested, under 10 active. purified enzyme, 4-MU-alpha-Gal fluorescence, pH 4.5. AID 1467, 2008; inconclusive = small, poorly fitted or top-dose-only inhibition, or a rising curve; inactive = flat fitted curve, though single readings scatter; no compound was filed as active;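 note: 0% = full activity with enzyme and -100% = basal without enzyme; dose as in the result columns while the protocol names 77 µM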
miR-21 FLuc: qHTS Assay for Modulators of miRNAs and/orActivators of miR-21; 340,000 tested, under 10 active; AID 2288, 2010; HeLa miR-21 FLuc reporter, luciferase, 48 h; Potency, µM (series often up to 38.3 µM), inactives show at the highest dose reporter change, positive = more light; active = well fitted rising curve with a large enough effect; inconclusive = small, poorly fitted or top-dose-only effect; inactive = no such curve, though single readings can be large or run the other way;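 note: % of control where 0% means no effect; miR-21 action dims this reporter so a rising signal means less miR-21 action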
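HeLa cells endogenously expressing miR-21, stably carrying CMV-driven firefly luciferase with a downstream miR-21 binding site, 2000 cells/well. Titrations up to approximately 40 uM, 48 hours; luciferase luminescence read.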
Rango complex inh: qHTS Assay for Inhibitors of Rango (Ran-regulated importin-beta cargo) - Importin beta complex formation; Rango CFP/YFP FRET sensor + importin beta, 45 min; Potency, µM (series often up to 92.2 µM), without a hit: top-dose inhibition of complex formation; AID 540263, 2011; 340,000 compounds, 0.031% hits; Importin subunit beta-1 (Homo sapiens), Q14974; active = rising FRET ratio curve, often small or poorly fitted; inconclusive = mostly compound fluorescence or quenching in the first reads; inactive = flat curves in all reads;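 note: potency is the fitted concentration of half-maximal effect; 0% = DMSO wells and 100% = buffer wells lacking importin beta; nearly all actives have a fitted effect of over 15% in size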
Target sequence (Q14974 whole entry, looked up): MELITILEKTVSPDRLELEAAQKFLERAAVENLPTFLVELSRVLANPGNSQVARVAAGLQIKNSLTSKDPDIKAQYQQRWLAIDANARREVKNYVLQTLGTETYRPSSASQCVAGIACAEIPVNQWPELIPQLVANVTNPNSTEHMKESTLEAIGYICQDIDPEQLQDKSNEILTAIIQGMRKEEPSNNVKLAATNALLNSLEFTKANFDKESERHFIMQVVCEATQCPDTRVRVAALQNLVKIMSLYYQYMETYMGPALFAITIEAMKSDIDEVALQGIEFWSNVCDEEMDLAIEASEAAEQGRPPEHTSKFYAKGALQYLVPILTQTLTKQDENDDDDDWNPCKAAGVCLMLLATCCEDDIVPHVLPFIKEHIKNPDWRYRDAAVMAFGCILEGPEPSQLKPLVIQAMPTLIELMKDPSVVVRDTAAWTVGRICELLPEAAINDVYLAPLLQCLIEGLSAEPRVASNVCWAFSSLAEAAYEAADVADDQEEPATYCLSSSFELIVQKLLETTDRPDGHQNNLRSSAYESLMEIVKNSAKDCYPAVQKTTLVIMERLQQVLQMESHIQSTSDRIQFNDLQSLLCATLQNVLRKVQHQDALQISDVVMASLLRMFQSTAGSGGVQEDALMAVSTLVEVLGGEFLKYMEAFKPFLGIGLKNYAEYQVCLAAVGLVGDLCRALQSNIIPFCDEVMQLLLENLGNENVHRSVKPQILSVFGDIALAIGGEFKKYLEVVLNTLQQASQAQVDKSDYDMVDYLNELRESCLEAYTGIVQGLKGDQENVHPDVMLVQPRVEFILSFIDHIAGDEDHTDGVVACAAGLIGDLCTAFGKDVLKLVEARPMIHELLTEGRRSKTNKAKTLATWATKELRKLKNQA
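Inhibition scored from the CFP 486 nm/YFP 530 nm FRET ratio 45 min after adding 0.125 microM importin beta to 50 nM Rango biosensor preincubated 5 min with compound (room temperature, PBS with DTT, Tween-20, BSA). No-importin wells as positive control.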
Rango dissoc inh: qHTS Assay for Inhibitors of RanGTP induced Rango (Ran-regulated importin-beta cargo) - Importin beta complex dissociation. AID 540253, 2011. Potency, µM (top dose mostly 46.1 µM), without a hit: at the top dose activity change, negative = inhibition. Snurportin-1 (Homo sapiens) + GTP-binding nuclear protein Ran (Homo sapiens) + Importin …. Biochemical FRET Rango-importin beta, RanGTP-induced dissociation. 340,000 compounds, 0.071% hits; active means falling FRET ratio curve, often poorly fitted, with flat reads before Ran was added; inconclusive means other falling curves, or compound fluorescence or quenching; inactive means flat or rising ratio curve;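 note: potency is the fitted concentration of half-maximal effect; % of control where 0% means no effect; nearly all actives have a fitted effect of over 45% in size; -100% = wells without RanGTP and RCC1; the record marks most hits as doubtful in a second field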
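Rango/importin beta premix (0.1/0.25 uM final), PBS + 1 mM DTT + 0.02% Tween-20 + 0.1% BSA; cpd 5 min RT; FRET pre-read; + RanGTP-RCC1 (0.6 uM Ran, 2 mM GTP, 0.2 uM RCC1); 45 min RT; FRET post-read, ex 430, em 486/530 nm.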
Starred values were filed as active, the others as inactive; u = inconclusive; x = no result given; & = joins results of further samples; [ ] = another dose, or the depositor's remark.

GLA inh pH 4.5	miR-21 FLuc	Rango complex inh	Rango dissoc inh	canonical_smiles
3	2%	-16%	-4%	CCN(CC)S(=O)(=O)c1cc(NC(=O)c2n[nH]c(=O)c3ccccc23)ccc1C
-9	-7%	8.3%	-3%	CC1(C)OC(=O)C(=NNc2ccccc2C(=O)O)C(=O)O1
x	4%	1.1%	-11%	Cc1cc(=O)c(C(=O)O)nn1-c1ccccc1Cl
4	-15%	0.2%	9%	O=S1CC/C(=N\O)c2ccccc21 (stereo unspecified)
1	-2%	-3.3%	29%	CN(C)S(=O)(=O)c1ccc(C(=O)Nc2ccc(Cl)cc2)cc1
-5	2%	-2.1%	0%	CC(C)(C)N(CC#CCC1(O)c2ccccc2-c2ccccc21)CCO
2	-5%	0.1%	-7%	Cc1cccc(C)c1NC(=O)COC(=O)c1cccc2c1C(=O)c1ccccc1C2=O
x	x	0.1%	4%	Cc1ccc2[nH]c(=O)c(CN(CCO)C(=O)N(C)C)cc2c1
x	x	0.4%	-1%	Cc1nnnn1/C(=C\c1ccccc1)C(=O)OCC(=O)Nc1ccc(Cl)cc1F
1	u	8.7%	2%	Clc1cccc2c1Sc1ccccc1CC2N1CCNCC1 (stereo unspecified)
-2	-2%	6.7%	-1%	CC(c1nccs1)N(C)c1nc2nonc2nc1N(C)C (stereo unspecified)
2	2%	1.0%	-26%	Cc1ccc(N2C(=O)[C@@H]3C(C(=O)C(c4ccccc4)c4ccccc4)=NN[C@@H]3C2=O)cc1
-4	-2%	-0.2%	-4%	O=C(CN1CCN(Cc2ccc(Cl)cc2)CC1)N/N=C/c1c[nH]c2ccccc12
x	-35%	-0.8%	6%	COc1cccc(C(=O)c2cc3cc(Cl)ccc3[nH]2)c1
5	0%	0.1%	-10%	C=CCNC(=S)NNC(=O)Cn1c(-c2ccccc2)cc(=O)n2ncnc12
-3	13%	-0.6%	7%	O=S(=O)(c1ccccc1Cl)N1CCCC1c1nc(-c2ccccc2Cl)no1 (stereo unspecified)
2	-4%	0.1%	-5%	CC(NC(=O)Cn1nc(C(=O)O)c2ccccc2c1=O)c1ccccc1 (stereo unspecified)
2	-5%	0.4%	-12%	CC1CC(CC(C)C(=O)NC(=S)Nc2ccc(S(N)(=O)=O)cc2)C(=O)O1 (stereo unspecified)
0	-1%	-0.2%	-2%	COc1ccc2ncc(S(=O)(=O)c3ccccc3)c(N3CCC4(CC3)OCCO4)c2c1
7	-23%	3.4%	2%	Nc1c2c(nc3ccc(Br)cc13)N(c1ccccc1)CC2
-1	-36%	-4.2%	-19%	c1ccc(CSc2nnc(-c3ccco3)n2Cc2ccco2)cc1
-8	-1%	-1.2%	-3%	COCCSc1nnc(NC(=O)COC)s1
-6	-1%	-0.6%	-7%	Cc1c(Cl)c([N+](=O)[O-])nn1CC(=O)NCC1CCCO1 (stereo unspecified)
2[21.1 µM]	-15%	6.0%	-1%	Cc1ccc(NC(=S)N2CCC(c3ccccc3)C2)c(Cl)c1 (stereo unspecified)
2	-7%	3.1%	15%	Cc1nn(C)c(C(=O)NNC(=S)NCc2ccco2)c1Cl
-5	-3%	-0.7%	18%	CC1(C)Cc2ccccc2C(=O)N1
x	x	0.7%	7%	O=C(Cc1n[nH]c(=O)c2ccccc12)N1CCN(S(=O)(=O)c2ccc(F)c(Cl)c2)CC1
-11	-2%	-3.9%	4%	CN(CCCCCC(=O)/C=N/O)Cc1ccccc1
x	-6%	0.0%	-6%	CCOC(=O)Nc1ccc2c(c1)N(C(=O)CN1CCN(C)CC1)c1ccccc1CC2
x	x	1.7%	-8%	Cc1ccsc1CN(C)C(=O)CN1C(=O)NC(c2ccccc2)(c2ccccc2)C1=O
x	-8%	6.7%	-4%	O=S(=O)(Nc1ccc(Br)cc1)c1cccc2nonc12
x	-5%	-2.1%	-22%	CN(CCCC1CCCC1)C(=O)CC1C(=O)NCCN1Cc1cccc(F)c1F (stereo unspecified)
2	2%	-1.7%	2%	COc1ccc(-c2c(C#N)c(N)nc(Sc3ccc(Cl)cc3)c2C#N)cc1
0	-4%	u	u	COc1ccc(/C=C2\SC(c3ccc(C)cc3)=NC2=O)cc1OC
x	x	-13%	-9%	CN(C)S(=O)(=O)c1ccc(SCC(=O)N2CC(=O)Nc3ccccc32)nc1
x	x	2.6%	-10%	COc1cccc(-c2c(-c3cc(OC)cc(OC)c3)n(C)c3ccc(Br)cc23)c1
9	-19%	0.6%	1%	Brc1ccccc1-c1nnc(CSc2nnc3sc4ccccc4n23)o1
-1&-3	19%	-5.0%	3%	COC(=O)C1=C(C(=O)OC)[C@@H]2N(C)c3ccc(OC)cc3[C@@]23C[C@@H](C(=O)OC)N(C(=O)c2ccc(Br)cc2)C3=N1
-1	2%	-1.5%	8%	CC(=O)C1=C(O)C(=O)N(Cc2ccco2)C1c1ccccc1F (stereo unspecified)
-2	-52%	-3.7%	-6%	CCOc1ccc(NC(=O)CSc2nccn2C)cc1
x	x	0.7%	0%	CCC(CC)NC(=O)CN1CCN(S(=O)(=O)c2ccc(Br)s2)CC1
x	0%	1.1%	6%	CN1C(=O)C(C)(C)c2cc(S(=O)(=O)N3CCCC(C(=O)NCc4ccccc4Cl)C3)ccc21 (stereo unspecified)
x	x	-1.1%	u	CCCC[C@@H]1C=C(C(=O)O)[C@H](c2ccc(Cl)c(Cl)c2)N1S(=O)(=O)c1ccc(C)cc1
x	-1%	-0.3%	-3%	Cc1ccc(C(=O)CSc2nc(N)cc(=O)[nH]2)cc1C
x	x	8.3%	-5%	Cc1cccc(OCCC(=O)OCc2csc(CC(=O)Nc3ccccc3C)n2)c1
0	-1%	-7.1%	17%	CC1CC(C)(C)NC(=S)N1CCCC(=O)Nc1ccc(F)cc1 (stereo unspecified)
3	-5%	3.1%	-13%	O=c1[nH]c(=O)n(-c2ccccc2)c2c1C(C(F)(F)F)(C(F)(F)F)N=C(C1CCCCC1)N2
x	-4%	0.9%	6%	CCCc1ccc(S(=O)(=O)NCC2CCCN2CC)cc1 (stereo unspecified)
-3	20%	0.0%	9%	COc1ccc(NCC(O)Cn2c(C)c(C)c3ccccc32)cc1 (stereo unspecified)
x	-1%	-2.7%	-6%	CCOC(=O)N1CCN(C(=O)CCNS(=O)(=O)c2ccccc2)CC1
x	-5%	4.5%	12%	COc1ccc(-n2nc3c(c2NC(C)=O)CS(=O)(=O)C3)cc1
-7	-28%	u	u	COc1ccccc1-n1c(SCc2cc(=O)oc3cc(O)ccc23)nc2ccccc2c1=O
0	19%	5.5%	1%	O=C(NNC(=O)C(c1ccccc1)c1ccccc1)c1ccccn1
-4	3%	0.5%	4%	CC(C)(C)n1cnnc1Sc1ccc([N+](=O)[O-])cn1
x	-1%	-0.9%	-2%	O=C(COC(=O)c1cccs1)Nc1ccccc1Cl
x	-5%	-3.4%	17%	CC(=O)N/C(=N/c1nc(C)cc(C)n1)Nc1ccc(C)cc1C
x	1%&-5%	-1.0%	u	O=C(Nc1cccc(F)c1)c1cccc2c1C(=O)N(C1CCCCC1)C2
-3	4%	u	u	O=C1SC(SCc2ccccc2Cl)=N/C1=C\c1ccc(C(=O)O)cc1
2	u	0.9%	0%	COc1ccc([N+](=O)[O-])c(S(=O)(=O)c2ccc(Cl)cc2)n1
7	-18%	0.3%	-2%	Cc1cc(C)cc(NC(=S)N2CCC(c3nc4ccccc4s3)CC2)c1

Continued:
GLA inh pH 4.5	miR-21 FLuc	Rango complex inh	Rango dissoc inh	canonical_smiles
x	x	-0.4%	15%	O=C(Nc1cccc(S(=O)(=O)Nc2ccc(Cl)cc2)c1)c1ccccn1
-10	0%	-1.9%	-3%	CCOC(=O)COc1ccc(/C=C2/SC(=Nc3ccccc3)N(Cc3cccnc3)C2=O)cc1OC
-5	17%	1.1%	12%	Oc1c(N=NC(=S)Nc2ccccc2F)c2ccccc2n1Cc1ccc(F)cc1
-3	5%	1.8%	0%	O=C(Nc1ccc(OC(F)(F)F)cc1)c1ccc2nccnc2c1
10	-42%	2.9%	0%	CC(=O)Nc1ccc2oc(-c3ccccc3)nc2c1
2	-21%	1.8%	-8%	N#Cc1ccc(OCC(=O)Nc2ccccc2NS(=O)(=O)c2cccs2)cc1
x	-45%	-3.2%	-17%	CN(Cc1c(F)cccc1Cl)C(=O)CNC(=O)c1cccs1
-1	-2%	-1.8%	0%	O=C(CSc1nc2ccccc2n1CC(=O)NCc1ccccc1)NCc1ccco1
x	x	3.8%	5%	CCN(c1ccc(C(=O)CSc2nnc(C3CC3)n2C2CC2)cc1)S(C)(=O)=O
x	-2%	u	14%	Cc1nc(SCC(=O)Nc2nnc(C(C)C)s2)n[nH]1
x	7%	-1.0%	18%	CCOC(=O)[C@@H]1[C@H]2COc3cc(OC)ccc3[C@H]2N2C(=O)N(c3ccc(F)cc3)C(=O)[C@]12C
2	-2%	-0.5%	7%	CCOC(=O)C1=C(C)NC(C)=C(C(=O)OCC)C1C(=O)O
7	-40%	0.5%	1%	O=C(CSC(=S)N1CCCCC1)N1N=CCC1c1ccccc1 (stereo unspecified)
-13	8%	-4.5%	21%	O=C(Nc1ccccc1F)C1CCCN(S(=O)(=O)c2cccc3cccnc23)C1 (stereo unspecified)
x	-29%	17%	-13%	O=C1/C(=C/c2ccc([N+](=O)[O-])cc2)Oc2cc(O)ccc21
8	-6%	-1.8%	-6%	C=CCn1cccc(C(=O)Nc2ccc(OC)cc2OC)c1=O
x	-3%	0.0%	35%	COc1ccc(C(=O)Oc2cc(C(=S)N3CCOCC3)ccc2OC)cc1
x	-1%	5.7%	-7%	CCCC(=O)N1CCC(CCC(=O)NC2CC2)CC1
0	-4%	2.9%	34%	Cc1nnsc1C(=O)Nc1cccc(Cl)c1
x	-2%	-0.1%	7%	Cc1ccc(CNC(=O)CCC(=O)Nc2nnc(C)s2)cc1
-1	0%	-8.4%	16%	C=C(C)C(=O)Nc1cccc(C2=NOC3(C2)C[C@@H](C(N)=O)N(C(=O)c2ccc(OC)cc2)C3)c1 (stereo partly specified)
x	-2%	2.0%	4%	CC(=O)Nc1ccc(S(=O)(=O)NCc2nc(-c3ccccc3C)no2)cc1
-16	-12%	-0.4%	17%	CC1CCc2c(sc3c2C2=NS(=O)(=O)CCN2C=N3)C1 (stereo unspecified)
12	-5%	1.9%	8%	COC(=O)c1c(-c2ccccc2)csc1N
-15	0%	-2.5%	0%	COc1ccc(OC)c(C2CC(=O)N3CN(c4ccccc4F)CSC3=C2C#N)c1 (stereo unspecified)
x	x	-1.2%	11%	CCOC(=O)OC(C)OC(=O)[C@@H]1N2C(=O)[C@@H](NC(=O)[C@H](N)c3ccccc3)[C@H]2SC1(C)C (stereo partly specified)
x	x	5.7%	-8%	CN(C)c1ccc(C(=O)OCC#CCSc2nnc(-c3cccc4ccccc34)o2)cc1
x	-36%	2.7%	0%	Cc1ccc(-c2cn(-c3ccccc3)c(=S)[nH]2)cc1C

The list is partial; rates above refer to the full screens.
